# High-throughput results (PubChem BioAssay)
# HSD17B inhib: qHTS Assay for Inhibitors of HSD17B4, hydroxysteroid (17-beta) dehydrogenase 4; 3-hydroxyacyl-CoA dehydrogenase type-2 (Homo sapiens), Q99714; recombinant HSD17B10, NADH fluorescence kinetic; many of its hits are not listed in these tables; Potency, µM (highest dose often 57.1 µM), for the others: at the top dose activity change, negative = inhibition, usual class: inhibitors; 75,000 tested, 7.6% active; active = well fitted inhibition curve with a large enough effect; inconclusive = small, poorly fitted or top-dose-only effect; inactive = no such curve, though single readings can be large or run the other way;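 also: the protocol describes HADH2 (HSD17B10) and not the HSD17B4 of the title; nearly all actives have a fitted effect of over 70% in size; most hits overshoot -100% by far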
#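 20 nM HADH2, pH 9.0 Tris/Tween; cpd preinc 15 min RT; start w/ 1 mM NAD+ + 90 uM b-hydroxybutyryl-CoA; kinetic fluor ex360/em450 q30s x 4 min; delta last-first.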
# Active calls of the source: *; ? = inconclusive; & = joins results of further samples; [ ] = dose if it differs, or a comment. % is scaled to controls: 0 for no effect and ±100 for the full control effect; potency is read from the fitted curve at half-maximal effect.
SMILES,HSD17B inhib
COc1ccc(-n2ccnc2SCC(=O)NCc2ccc3c(c2)OCO3)cc1,-0.9%
O=C(Nc1ccccc1C(=O)N1CCCCC1)c1cccc(S(=O)(=O)N2CCOCC2)c1,-3.3%
CCN1C(=O)/C(=C/N(C)c2ccccc2)OC1=S,-11.3%
CCOC(=O)N/C(N)=N/c1nc2ccccc2s1,-9.4%
Cc1cc(C(=O)NCc2ccccc2)no1,2.1%
Cc1cc(C)c2cc(CN(Cc3nnnn3C3CCCCC3)CC3CCCO3)c(=O)[nH]c2c1 (stereo not drawn),1.8%
C=CCSc1nc2c(c(=O)[nH]c(=O)n2C)n1C(C)C,-4.4%
CCSc1nc(-c2ccccc2)c(C#N)c(=O)[nH]1,0.9%
Cn1c(=O)c2c(ncn2CC(=O)N2CCCc3ccccc32)n(C)c1=O,3.9%
CCOC(=O)c1ccc(NC(=O)CCNc2c(N3CCCC3)c(=O)c2=O)cc1,2.5%
c1ccc(-n2nnnc2SCc2cn3cccnc3n2)cc1,31.6µM*
CCOC(=O)N1CCN(c2c(NCc3ccccn3)c(=O)c2=O)CC1,4.3%
COc1ccccc1C1N(c2cc(Cl)ccc2OC)C(=O)C2CCCN21 (stereo not drawn),1.7%
c1ccc2c(Cc3c[nH]c4ccccc34)c[nH]c2c1,0.4%
COC(=O)N1CCC2(CCCN(c3ccncc3)C2)CC1,1.5%
O=C(CN1CCOCC1)Nc1ccc(Br)cn1,4.1%
OC(COCc1ccco1)CN1CCN(C(c2ccccc2)c2ccccc2)CC1 (stereo not drawn),-6.3%
O=C(NCc1cccs1)c1noc2c1CCCCC2,3.8%
COc1cccc(C2Nc3ccccc3C(=O)N2O)c1O (stereo not drawn),-2.0%
CCOC(=O)Cc1csc(NC(=O)CN(C)S(=O)(=O)c2cccc3cccnc23)n1,7.0%
CN1CCN(/C=C2\SC(=S)NC2=O)CC1,1.2%
CC(C)CC(NC(=O)C1CCCN1C(=O)OC(C)(C)C)C(=O)NCC(N)=O (stereo not drawn),5.0%
Cc1cccc(NC(=O)Nc2cccc(C#N)c2)n1,0.8%
Cc1ccccc1CS(=O)(=O)CCC(=O)NCCCN1CCOCC1,9.8%
c1cncc(-c2nc3c4ccccc4nc(N4CCC(N5CCCCC5)CC4)n3n2)c1,5.8%
Cc1ccc(C)c(N(CC(=O)N(C)C)S(C)(=O)=O)c1,6.6%
C=CCn1c(NCCOC)nc2c1c(=O)n(C)c(=O)n2C,19.7%
Cc1ccc(-c2nn3c(C)nnc3s2)cc1NC(=O)c1ccc(-c2ccc(Cl)cc2Cl)o1,31.6µM*
CCC(C(=O)N1CCc2cc(OC)c(OC)cc2C1)c1ccccc1 (stereo not drawn),31.6µM*
O=c1c2ccccc2n(Cc2cccc(F)c2)c(=O)n1C1CCCC1,4.0%
Cc1ccc2nsnc2c1S(=O)(=O)NCc1ccncc1,7.4%
COC(=O)CCC/C=C1/SCC(NC(=O)c2ccccc2)C1O (stereo not drawn),-2.3%
CCOc1ccc2nc(NS(C)(=O)=O)sc2c1,-10.2%
COC(=O)COc1ccc(S(=O)(=O)Nc2ccccc2SC)cc1,6.4%
C#CCCCCCCCCCCCCCCCC(=O)O,15.8µM*
Cc1ccnc2c(N3C(=O)C4C5C=CC(C5)C4(C)C3=O)cccc12 (stereo not drawn),-3.0%
CCOC(=O)N1CCN(C(=O)C2CCC(C(=O)N3CCN(C(=O)OCC)CC3)CC2)CC1 (stereo not drawn),4.8%
CC(=O)c1c(N2CCN(c3ccccc3)CC2)nc(=S)n(-c2ccccc2)c1C,-13.4%
COc1ccc(N2CCN(Cc3nc(N)nc(Nc4ccccc4OC)n3)CC2)cc1,1.9%
COC(=O)C1=C(C)N(c2cccc(C(C)=O)c2)C(=O)C1,10.6%
O=C(CCCC(=O)N(CC(=O)NC1CCCC1)Cc1ccc(F)cc1)Nc1ccccn1,-1.1%
COC(=O)Nc1ccc2c(c1)ncn2C1CCCCC1,10.5%
CCOc1cc(NC(=O)c2ccco2)c(OCC)cc1NC(=O)CCC(=O)NCc1cccnc1,-0.3%
Cn1nc(-c2ccc(Cl)cc2)c2cc(C(=O)N3CCN(C(=O)c4ccco4)CC3)sc21,-1.2%
c1ccc2c(c1)c1ccccc1n2Cn1c2ccccc2c2ccccc21,11.3%[11.4 µM]
Cn1cccc1C(=O)N1CCC[C@@]2(CCN(c3ccccn3)C2)C1,?
O=C(Nc1ccccc1C(=O)NCC1CCCO1)c1ccco1 (stereo not drawn),-4.7%
O=C1NCCCC1C(=O)Nc1cccc(C(F)(F)F)c1 (stereo not drawn),7.4%
CCN(CC)S(=O)(=O)c1cc(C(=O)Nc2nncs2)c(Cl)cc1Cl,0.7%
Cn1cc(S(=O)(=O)N2CCc3ccccc3C2)c(=O)n(C)c1=O,12.9%
CCOC(=O)C1CCCN(C(=O)c2ccc(OC(C)=O)cc2)C1 (stereo not drawn),2.9%
CC1=C(C(=O)OC(C)C)C(c2cccc(F)c2)N2C(=O)C(C)SC2=N1 (stereo not drawn),-1.1%
COc1ccc(-n2cnnc2SCc2cnc(-c3ccccc3)s2)cc1,-9.8%
Cc1ccc(B(O)O)cc1,5.3%
CCOc1ccc(NC(=O)CN2CCN(CC(=O)Nc3ccc(F)cc3)CC2)cc1,6.1%
CCC1CCCCN1C(=O)N[C@@H](Cc1ccccc1)C(=O)O (stereo partly drawn),4.0%
COc1ccc(Oc2ncc3nc(-c4cc(F)cc(F)c4)c(=O)n(CCC#N)c3n2)cc1,-10.4%
CCn1c(=O)n(CC)c2cc(S(=O)(=O)NCCOc3ccccc3)c(C)cc21,3.9%
CCOC(=O)N1CCN(CCC(=O)Nc2ccc(OC)cc2)CC1,1.7%
O=C(COc1nnnc2ccccc12)N1CCCc2ccccc21,0.8%

# 4 of the compounds above, as labelled records.
CCOC(=O)C1CCCN(C(=O)c2ccc(OC(C)=O)cc2)C1 (stereo not drawn)
  HSD17B inhib = 2.9%

CC1=C(C(=O)OC(C)C)C(c2cccc(F)c2)N2C(=O)C(C)SC2=N1 (stereo not drawn)
  HSD17B inhib = -1.1%

COc1ccc(-n2cnnc2SCc2cnc(-c3ccccc3)s2)cc1
  HSD17B inhib = -9.8%

Cc1ccc(B(O)O)cc1
  HSD17B inhib = 5.3%

# (further entries)
SMILES,HSD17B inhib
Cc1ccc(S(=O)(=O)NCCCCC(NC(=O)OC(C)(C)C)C(=O)O)cc1 (stereo not drawn) (tested in a mixture with another compound),5.1%
O=Nc1ccc(Nc2ccccc2)cc1,-28.6%
CON,1.7%
COc1ccc(C2(O)CCN(C(=O)c3c(F)cccc3F)CC2)cc1,-8.0%
Nc1ccc(-c2n[nH]c(=O)c3ccccc23)cc1N,?
COc1ccc(CCNC(=O)c2ccc3c(c2)NC(=O)C(N2CCOCC2)S3)cc1OC (stereo not drawn),-5.9%
COc1cccc(C2=NOC(C(=O)Nc3ccc(C(C)=O)cc3)C2)c1 (stereo not drawn),-7.0%
COc1ccc(-c2c3c(=O)n(C)c(=O)n(C)c3c3nnc4ccccc4n23)cc1,5.0%
Cc1[nH]nc2c1/C(=N\O)CC(C)(C)C2,?
CCOC(=O)N1CCN(C(=O)CSc2nnc(-c3ccc(Cl)s3)o2)CC1,-3.9%
O=C(CCN1C(=O)COc2ccccc21)NCCN1CCN(c2ccccc2F)CC1,9.3%
Cc1ccc(C(=O)NC2CC(C)(C)NC(C)(C)C2)cc1C,5.1%
CN(C)/C=N/c1cc(=O)[nH]c(=O)n1C,-9.4%
c1ccc(-c2cc3c(ccc4nonc43)nn2)cc1,-6.3%
CCOC(=O)N1CCN(C(=O)CN(C)S(=O)(=O)c2ccc3c(c2)C(C)(C)C(=O)N3C)CC1,3.7%
Nc1nnc(-c2ccncc2)s1,15.8µM*
Cc1cccc(N2C(=O)SC(N(C)c3ccccc3)C2=O)c1 (stereo not drawn),-0.4%
CCOC(=O)C1CCCN(Cc2ccc(OC)cc2OC)C1 (stereo not drawn),-0.7%
COc1ccc(OC)c(NC(=O)CSCC(=O)O)c1,-2.4%
O=C1c2ccccc2C(=O)N1CCCCN(C(=O)c1ccco1)c1ccc(Cl)cc1,-0.1%

# An excerpt of the results above:
SMILES,HSD17B inhib
Cc1[nH]nc2c1/C(=N\O)CC(C)(C)C2,?
CCOC(=O)N1CCN(C(=O)CSc2nnc(-c3ccc(Cl)s3)o2)CC1,-3.9%

# Next structures follow.
SMILES,HSD17B inhib
CC(=O)NC1C(=O)N=C(SCC(=O)NC2CCCCC2)NC1=O (stereo not drawn),-2.0%
CCOC(=O)c1cn[nH]c1N,-6.5%
COc1ccccc1C(=O)Nc1ccccc1C(=O)N1CCCC1,4.9%
COC(=O)c1ccccc1NC(=O)C1CC(c2ccc(F)cc2)=NO1 (stereo not drawn),-12.3%
Cc1onc(-c2ccccc2Cl)c1C(=O)OCN1C(=O)c2ccccc2C1=O,-0.8%
CCCCCn1c(SCCN2CCOCC2)nc2c1c(=O)[nH]c(=O)n2C,-4.6%
CC(C)OC(=O)CCc1nc2ccccc2[nH]c1=O,25.1µM*
CC(C)CN1CC[C@@]2(CCCN(C(=O)c3csnn3)C2)C1,4.9%
O=C(COc1ccccc1)NCC(c1cccs1)N1CCOCC1 (stereo not drawn),5.3%
CCOc1ccccc1COC(=O)c1cccc(-n2cnnn2)c1,4.2%
CCCn1c(-c2cccs2)nc2ccccc21,31.6µM*
Cc1c(C(=O)NCc2cccs2)oc2ccccc12,-0.6%
COc1ccc(N2C(=O)C3CCCN3C2c2ccc(C)cc2)cc1 (stereo not drawn),8.5%
O=C(CCCCCn1c(=O)[nH]c2ccsc2c1=O)NCc1cccs1,8.8%
C=CCNC(=O)CCCc1ccccc1,9.9%
COc1cccc(O)c1O,3.16µM*
Cc1cc(NC(=O)CSc2ncnc3sc4c(c23)CCC(C)C4)no1 (stereo not drawn),-5.0%
CCSc1nnc(NC(=O)c2cc(C)oc2C)s1,-2.1%
O=C(Cn1cc2c(n1)CCCC2)Nc1ccccc1Cl,8.3%
C=CCn1c(Cc2cccs2)nnc1SCC(=O)Nc1ccc(C(=O)OCC)cc1,5.1%

# A different layout for some results above.
> O=C(CCCC(=O)N(CC(=O)NC1CCCC1)Cc1ccc(F)cc1)Nc1ccccn1
  HSD17B inhib: -1.1%

> COC(=O)Nc1ccc2c(c1)ncn2C1CCCCC1
  HSD17B inhib: 10.5%

# The results go on.
SMILES,HSD17B inhib
Fc1cccc2sc(Nc3nnc(-c4ccco4)o3)nc12,25.1µM*
Cc1ccc(C)c(N2CCN(C(=O)CCNC(=O)Cn3ccc4ccccc4c3=O)CC2)c1,2.1%
CCc1nnc(SCc2ccc(C(=O)OC)o2)n1N,-11.4%
O=C(Nc1ccc(NC(=O)C2CCCCC2)cn1)c1ccco1,-7.9%
Cc1ccc(Cn2ccc(NC(=O)c3noc4c3CCCC4)n2)cc1,40.6%[activator]
NC(=O)c1nsc(C(=O)N(CCc2ccccc2)C(C(=O)NC2CCCC2)c2ccco2)c1N (stereo not drawn),?
CC1COC(c2cccn2Cc2ccccc2Cl)=N1 (stereo not drawn),2.2%
COCCCn1c(C2CCCCC2)nc2oc3cc(OC)ccc3c(=O)c2c1=O,3.4%
Cc1ccc(C(C)NC(=O)c2ccco2)cc1C (stereo not drawn),-6.7%
CC1(C)CC(=O)C=C(NCc2ccco2)C1,11.6%
Cc1ccc2c(c1)N(CCC(=O)NCc1ccccn1)C(=O)CO2,3.7%
CC(=O)Nc1nc2c(ncn2COCCOC(C)=O)c(=O)[nH]1,19.1%
COC(=O)c1ccc(C23CC4(C2)[C@H](CN(Cc2ccc(C(F)(F)F)cc2)[C@@H]4c2ccccc2)C3c2ccc(C(F)(F)F)cc2)cc1 (stereo partly drawn),15.8µM*
CCOC(=O)N1CCC(NC(=O)c2cc(-c3ccc(F)cc3)[nH]c2C)CC1,?
CCCCOc1ccccc1Cn1c(=O)oc2ccc(C)cc21,-6.8%
COc1ccccc1S(=O)(=O)Cc1ccc(C(=O)NC2CCCCC2)o1,-7.1%
Cc1ccc(S(=O)(=O)NC2(C(F)(F)F)C(=O)Nc3c2c(=O)n(C)c(=O)n3C)cc1 (stereo not drawn),-0.4%
Cc1ccc(C)n1C(Cc1ccccc1)C(=O)O (stereo not drawn),10µM*
CC(=O)NC(Cc1ccccc1)C(=O)N1CCN(C(=O)c2ccco2)CC1 (stereo not drawn),2.9%
COc1cc(/C=C(\C#N)C(=O)c2ccc(O)c(O)c2)cc(I)c1O,?
Cc1ccc(-c2cc(C(=O)NCc3ccccn3)no2)cc1,12.7%
Cc1[nH]c(C)c(Cl)c(=O)c1Cl,4.3%
CCN(CC)S(=O)(=O)c1ccc2oc(SCC3CN=C(c4ccc(OC)cc4)S3)nc2c1 (stereo not drawn),-21.4%
CN(C)c1ccc(/C=[N+](\[O-])C2SC(=S)N(C)C2(C)C)cc1 (stereo not drawn),-14.3%
COC(=O)C1=C(C)N(Cc2ccccc2)[C@]23O[C@](C(=O)OC)(C(=O)N2C1c1ccccc1)C(C(=O)OC)C3C(=O)OC (stereo partly drawn),7.6%&6.1%[11.4 µM]
CC1=C(C(=O)Nc2ccccc2)C(c2ccc(N(C)C)cc2)NC(=O)N1 (stereo not drawn),1.9%
CCOC(=O)C(C)(C)C(=O)C(C)(C)C(O)c1ccccn1 (stereo not drawn),0.8%
O=C(CSc1ccc2nnc(-c3ccccn3)n2n1)N1CCOCC1,?
CN(CC(=O)N1CCCCC1)S(=O)(=O)c1cccc2cccnc12,3.0%

# An excerpt; rates above refer to the full screens.
